Screening results as filed in PubChem BioAssay.
nsP2pro inh = inhibitors of chikungunya virus nsP2 protease; FRET peptide cleavage, nsP2pro, fluorescence 1 h; Potency, µM (titrated, usually from 24.9 µM), for inactives: at the highest dose activity change, negative = inhibition, usual class: inhibitors; 31,000 compounds, 1.1% hits; AID 1964107; Q8JUX6; active means well fitted inhibition curve with a large enough effect; inconclusive means small, poorly fitted or top-dose-only effect; inactive means no such curve, though single readings can be large or run the other way; note: nearly all actives have a fitted effect of over 60% in size; a reference inhibitor and vehicle were the controls
Target sequence (Q8JUX6 whole entry, looked up): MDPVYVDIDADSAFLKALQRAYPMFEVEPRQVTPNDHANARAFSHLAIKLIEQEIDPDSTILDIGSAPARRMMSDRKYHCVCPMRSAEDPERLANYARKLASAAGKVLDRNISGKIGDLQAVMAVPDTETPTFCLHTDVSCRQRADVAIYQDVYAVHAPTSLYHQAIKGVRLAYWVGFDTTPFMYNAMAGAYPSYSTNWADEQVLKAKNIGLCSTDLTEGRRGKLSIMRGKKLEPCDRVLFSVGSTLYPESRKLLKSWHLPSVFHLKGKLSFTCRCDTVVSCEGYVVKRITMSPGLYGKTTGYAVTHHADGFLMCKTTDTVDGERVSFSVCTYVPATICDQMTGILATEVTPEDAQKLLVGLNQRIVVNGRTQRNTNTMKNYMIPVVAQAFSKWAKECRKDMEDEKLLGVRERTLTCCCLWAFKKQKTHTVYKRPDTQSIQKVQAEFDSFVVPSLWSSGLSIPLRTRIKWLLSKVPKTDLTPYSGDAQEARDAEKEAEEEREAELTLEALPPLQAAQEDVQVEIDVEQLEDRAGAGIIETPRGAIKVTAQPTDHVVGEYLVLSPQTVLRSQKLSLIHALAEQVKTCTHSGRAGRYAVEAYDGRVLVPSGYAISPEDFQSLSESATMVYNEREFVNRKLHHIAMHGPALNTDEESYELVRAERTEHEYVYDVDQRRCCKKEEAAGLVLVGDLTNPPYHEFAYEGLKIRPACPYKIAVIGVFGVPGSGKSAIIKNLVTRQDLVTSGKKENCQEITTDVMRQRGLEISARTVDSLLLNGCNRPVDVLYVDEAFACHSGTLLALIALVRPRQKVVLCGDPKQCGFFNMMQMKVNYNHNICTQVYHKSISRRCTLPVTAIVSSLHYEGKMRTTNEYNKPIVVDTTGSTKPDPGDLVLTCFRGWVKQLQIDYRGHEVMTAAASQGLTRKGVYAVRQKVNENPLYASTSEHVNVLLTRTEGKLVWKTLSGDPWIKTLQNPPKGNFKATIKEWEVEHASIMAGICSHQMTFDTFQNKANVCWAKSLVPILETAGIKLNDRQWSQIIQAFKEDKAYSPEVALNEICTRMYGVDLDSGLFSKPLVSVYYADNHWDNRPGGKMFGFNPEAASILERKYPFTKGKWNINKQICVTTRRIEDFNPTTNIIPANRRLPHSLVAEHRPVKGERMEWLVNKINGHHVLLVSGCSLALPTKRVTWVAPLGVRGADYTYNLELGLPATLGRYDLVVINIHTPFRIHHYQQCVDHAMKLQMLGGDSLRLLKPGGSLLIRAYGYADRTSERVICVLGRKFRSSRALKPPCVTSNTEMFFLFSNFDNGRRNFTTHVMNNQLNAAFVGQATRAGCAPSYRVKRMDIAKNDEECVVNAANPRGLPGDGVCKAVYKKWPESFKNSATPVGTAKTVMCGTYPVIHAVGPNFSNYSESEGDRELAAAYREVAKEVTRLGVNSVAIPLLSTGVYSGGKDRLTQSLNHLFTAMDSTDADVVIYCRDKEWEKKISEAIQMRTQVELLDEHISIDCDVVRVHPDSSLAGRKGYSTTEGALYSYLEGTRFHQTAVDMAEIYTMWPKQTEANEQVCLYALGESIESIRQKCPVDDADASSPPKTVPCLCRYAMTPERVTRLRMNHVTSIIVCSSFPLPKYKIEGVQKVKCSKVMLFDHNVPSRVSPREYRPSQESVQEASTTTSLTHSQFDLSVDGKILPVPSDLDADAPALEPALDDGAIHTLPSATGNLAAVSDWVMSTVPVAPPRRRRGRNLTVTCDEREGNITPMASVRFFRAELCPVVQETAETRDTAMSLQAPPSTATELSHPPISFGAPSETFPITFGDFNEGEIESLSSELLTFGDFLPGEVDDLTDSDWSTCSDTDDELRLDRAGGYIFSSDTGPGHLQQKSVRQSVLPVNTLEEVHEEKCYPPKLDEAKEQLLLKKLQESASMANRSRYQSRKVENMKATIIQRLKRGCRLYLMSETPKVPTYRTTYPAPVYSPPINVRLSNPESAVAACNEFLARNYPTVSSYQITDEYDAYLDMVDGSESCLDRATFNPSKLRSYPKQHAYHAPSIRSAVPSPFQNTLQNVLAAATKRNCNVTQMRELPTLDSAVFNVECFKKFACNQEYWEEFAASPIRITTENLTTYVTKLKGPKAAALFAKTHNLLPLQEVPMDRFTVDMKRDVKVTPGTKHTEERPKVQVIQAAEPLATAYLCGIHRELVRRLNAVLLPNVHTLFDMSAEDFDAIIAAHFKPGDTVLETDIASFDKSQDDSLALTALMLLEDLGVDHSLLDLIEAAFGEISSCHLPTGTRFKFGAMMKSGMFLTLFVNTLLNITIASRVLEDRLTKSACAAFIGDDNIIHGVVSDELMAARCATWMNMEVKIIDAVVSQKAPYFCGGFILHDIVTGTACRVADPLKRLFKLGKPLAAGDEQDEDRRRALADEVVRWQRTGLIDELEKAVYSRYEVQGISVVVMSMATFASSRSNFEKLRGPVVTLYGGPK
The depositor's hits bear a star; i = inactive; ? = inconclusive; & = joins results of further samples; [ ] = remark or other dose. % is set by controls: 0 for no effect and ±100 for the full control effect; potency is the fitted concentration of half-maximal effect. This is a subset; count on the stated rates, not on these rows.

compound	nsP2pro inh
COc1ccc(NC(=O)N[C@H]2CO[C@H]3[C@@H]2OC[C@@H]3n2nnnc2-c2ccccc2)cc1	-4%[39.2 µM]
Cc1cc(C)nc(NC(=S)N2CCN(c3cncnc3)CC2)c1	3%
CC1(C)[C@@H]2CC[C@@]1(C)C(=O)C2	22%
CCN(CC)S(=O)(=O)c1ccc2c(c1)nc(CN(C)C(=O)c1cccc(Cl)c1)n2C	-10%
N#Cc1ccc(Nc2nn3c(=O)c4ccccc4nc3s2)cc1	0%
CS(=O)(=O)c1ccc(OC[C@H]2C[C@@H](NC(=O)c3ccccc3)[C@H](O)[C@@H]2O)cc1	i
O=C(Cn1c(=O)n(Cc2ccc(F)cc2)c(=O)c2sc3ccccc3c21)NCc1ccccc1	-14%
COc1ccc(OC)c(CCNC(=O)c2ccc3[nH]c(C)c(C)c3c2)c1	-18%
O=C(Nc1nc2cc(C(F)(F)F)cc(NC3CC3)n2n1)c1cccnc1	0%
CCc1c(C)sc(NC(=O)c2cc(-c3cccc(Cl)c3)on2)c1C#N	?
COC(=O)c1ccc([C@H]2c3[nH]c4ccccc4c3C[C@@H](C(=O)OC)N2C(=O)CCl)cc1	-5%
CNC(=O)Cn1nc(C2CCN(C(=O)c3ccccc3F)CC2)c2c1CCOC2	-7%
Cc1nn(-c2ccc(C(F)(F)F)cc2)c(C)c1[C@@H]1C=C[C@@H](NC(=O)NC(C)C)C1	1.4µM*
COc1cccc(Nc2ncc3c(n2)C(C)(C(=O)N2CCN(c4ccccn4)CC2)CC3)c1 (stereo not drawn)	4%
CCN(C(=O)C1CCN(S(=O)(=O)c2ccc3c(c2)CCCN3C(=O)C2CCC2)CC1)c1cccc(C)c1	-13%
Cn1cc(CN2CCCC(C(=O)N3CCOCC3)C2)c(-c2ccc(C3CCCCC3)cc2)n1 (stereo not drawn)	?
COC(=O)CCCn1c(-c2ccc(C)cc2)c(C)n2c3c(=O)n(C)c(=O)n(C)c3nc12	-20%
C=C(C(=O)O)C1CC2=C(C)C(=O)CC2C(C)CC1O (stereo not drawn)	4.4µM*
CSCC(=O)N[C@H]1CCN2C(=O)c3ccc(Cl)cc3NC(=O)[C@@H]2C1	-13%[39.2 µM]
COc1ccccc1CNC(=O)Cc1csc2nc(-c3ccc(Cl)cc3)cn12	-9%
Cc1ccc(-c2nc3cc(NC(=O)c4cc5ccccc5o4)ccc3o2)cc1	-16%
Cc1cc(=O)n2nc(N(C)CC(=O)NCc3cccc(Br)c3)sc2n1	-19%
C[C@H](CCC(=O)O)[C@H]1CC[C@H]2[C@@H]3C(=O)C[C@@H]4CC(=O)CC[C@]4(C)[C@H]3CC(=O)[C@]12C	-2%
COC(=O)CN1C(=O)C(C)(C)c2cc(S(=O)(=O)Nc3ccc(C(C)C)cc3)ccc21	-18%
CCOC(=O)c1c(NC(=O)COc2cccc(C)c2C)sc2c1CCCCC2	-21%

(more compounds)
compound	nsP2pro inh
CCc1cccc(C)c1NC(=O)c1cn2c3c(ccc(Cl)c3c1=O)OC(C)C2 (stereo not drawn)	-9%
O=C(Nc1cccnc1)c1cc(-c2ccnc(F)c2)ccc1OCc1ccccc1	0%
Cc1ccccc1C(=O)N1C(C(=O)NCc2ccccc2)COC12CCN(C(=O)c1ccco1)CC2 (stereo not drawn)	-24%
CCOC(=O)OCC/C(SC(=O)OCC)=C(\C)N(C=O)Cc1cnc(C)nc1N	0%
CC(C)C1=NOC2(CCCN(C(=O)c3ccccn3)C2)C1 (stereo not drawn)	-3%[39.2 µM]
CCOc1ccc(CCNC(=O)c2cc3sc(Cl)cc3n2C)cc1OCC	-7%
O=C1CCN(C(=O)CCc2ccccc2)CCCC(CO)CCN1 (stereo not drawn)	2%
CCOc1nc2cccc(C(=O)OC(C)OC(=O)OC3CCCCC3)c2n1Cc1ccc(-c2ccccc2-c2nn[nH]n2)cc1 (stereo not drawn)	331%[activator]
Cc1ccc2nc(NC(=O)c3ccc(S(=O)(=O)N4CCCc5ccccc54)cc3)sc2c1	-16%
Cc1cccc(-n2cnc3cc(C(=O)NC4CCCCC4)ccc32)c1	-9%
C=CCC1(C(C)CC)C(=O)NC(=O)NC1=O (stereo not drawn)	-7%
O=C(c1ccsc1)N1CCC2(CCCN(CC3CCC3)C2=O)C1 (stereo not drawn)	i
CC[C@H]1CN2CC[C@H]1C[C@@H]2[C@@H](O)c1ccnc2ccc(OC)cc12	11%&-7%
CN(C)c1cccc(C(=O)Nc2nc3ccc(S(=O)(=O)N4CCCC4)cc3s2)c1	-25%
OCCN1CCN(C(c2ccccc2Cl)c2sc3nc(-c4ccco4)nn3c2O)CC1 (stereo not drawn)	-20%
Cn1nc(C(=O)N2CCC3(CC2)CC(Cc2nc(C4CC4)no2)CCO3)c2ccccc21 (stereo not drawn)	0%
COc1ccc(NC(=O)Cn2c(=O)n(Cc3ccccc3Cl)c(=O)c3cc(OC)c(OC)cc32)cc1OC	-12%
COc1ccccc1CNC(=O)CSc1ccc(-c2sc(-c3ccccc3)nc2C)nn1	6%
CC1CCN(S(=O)(=O)c2ccc3c(c2)N(CC(=O)NCCN(C)C)C(=O)CS3)CC1	-13%
Brc1ccc(-c2ccc(C3Nc4cccc5cccc(c45)N3)o2)cc1	-17%
Cc1cccc(NS(=O)(=O)c2ccc3c(c2)CC(C)N3C(=O)C2CCC2)c1C (stereo not drawn)	-18%
CCC(C)NC(=O)CN1CN(c2ccccc2)C2(CCN(C(=O)Nc3ccccc3C)CC2)C1=O (stereo not drawn)	i
CN(Cc1ccccc1)C(=O)c1cc2c(s1)-c1ccc(Cl)cc1SC2	-9%
Cc1ccc(COc2cccc3cc(-c4noc(-c5ccc(C)cc5)n4)c(=O)oc23)cc1	-17%
CC1(C)[C@H]2CC[C@@H](CNC(=O)c3ccc4ccccc4n3)[C@@H]1C2	i

A second format for some results above:
C=CCC1(C(C)CC)C(=O)NC(=O)NC1=O (stereo not drawn)
  nsP2pro inh = -7%
O=C(c1ccsc1)N1CCC2(CCCN(CC3CCC3)C2=O)C1 (stereo not drawn)
  nsP2pro inh = i
CC[C@H]1CN2CC[C@H]1C[C@@H]2[C@@H](O)c1ccnc2ccc(OC)cc12
  nsP2pro inh = 11%&-7%
CN(C)c1cccc(C(=O)Nc2nc3ccc(S(=O)(=O)N4CCCC4)cc3s2)c1
  nsP2pro inh = -25%

Next section
compound	nsP2pro inh
COc1ccc(Cl)cc1C(=O)Nc1ccc(-c2nnc3n2CCCCC3)cc1	-2%
COc1ccc(C(=O)N2CC(N(C3CCOCC3)S(C)(=O)=O)C2)cc1OC	-4%
OCCc1ccc(O[C@@H]2O[C@H](CO)[C@@H](O)[C@H](O)[C@H]2O)cc1	-6%
CCOC(=O)c1c(NC(=O)C(C)Sc2cn(CCNC(=O)c3ccc(OC)c(OC)c3)c3ccccc23)sc2c1CCC2 (stereo not drawn)	2%
CN(C)C(=O)N1CCN(c2ccc(Cl)nn2)C(=O)C1	-20%[39.2 µM]
COc1cccc(-n2c(SCc3cccc(C)c3)nc3c([nH]c4ccccc43)c2=O)c1	-10%
CC(C)OCCCNC(=O)CN1C(=O)CSc2ccc(S(=O)(=O)N3CCOCC3)cc21	-12%
Cc1c(Cl)cccc1Nc1nn2c(=O)c3ccc(C(=O)N(C)Cc4ccccc4)cc3nc2s1	-18%
Cc1ccc2c(c1)N(CC(=O)NCCc1ccc(Cl)cc1)C(=O)c1cccnc1O2	-20%
OC(Cn1cncn1)(Cn1cncn1)c1ccc(F)cc1F	-3%
C[C@H](CCC(=O)NCC(=O)O)[C@H]1CC[C@H]2[C@@H]3[C@H](O)C[C@@H]4C[C@H](O)CC[C@]4(C)[C@H]3C[C@H](O)[C@]12C	?
CC(=O)Oc1c(C)c(C)c2c(c1C)CC[C@@](C)(CCC[C@H](C)CCC[C@H](C)CCCC(C)C)O2	-2%
O=C(NCc1ccc(N2CCOCC2)cc1)c1cc[nH]c1C1CCCNC1 (stereo not drawn)	?
COCCN1C[C@@H]2[C@H](c3ccccc31)[C@@H](CO)[C@@H](c1ccccc1)N2C(=O)COC(C)=O	-31%
CCOc1ccccc1NC(=O)C(CC)Sc1nc2ncccc2[nH]1 (stereo not drawn)	-16%
Cc1cccc(NC(=O)c2c(Br)sc3c2CCCC3)c1	-8%
CCOC(=O)c1ccccc1NC(=O)Cn1c(=O)n(Cc2nc(C)no2)c(=O)c2ccccc21	-16%
CN(C(=O)CSc1nnc2[nH]c(=O)cc(-c3ccccc3)n12)c1ccccc1	-10%
CNC(C)C(=O)NC(C(=O)N1CCCC1C(=O)Nc1snnc1-c1ccccc1)C1CCCCC1 (stereo not drawn)	-1%
Cc1ccc(S(=O)(=O)Nc2cnccc2C(=O)Nc2nc(-c3ccc(-c4ccccc4)cc3)cs2)cc1	3%
Cc1cc(F)ccc1NC(=O)CCC1CCCN(C(=O)CC2=CCCCC2)C1 (stereo not drawn)	-1%
COc1ccc(C2=Nn3c(nnc3-c3ccccc3C)SC2)cc1OC	i
CC1CCC2(NC1)OC1C(O)C3C4CCC5CC(O[C@@H]6O[C@H](CO)[C@@H](O)[C@H](O)[C@H]6O[C@@H]6O[C@@H](C)[C@H](O)[C@@H](O)[C@H]6O)CCC5(C)C4CCC3(C)C1C2C (stereo partly drawn)	-12%[10 µM]
OC1CCOC2(CCN(Cc3ccc4cc[nH]c4c3)CC2)C1 (stereo not drawn)	i
COCc1noc([C@@H]2CC(F)(F)CN2C(=O)c2cnc(C)cn2)n1	3%

Next section.
compound	nsP2pro inh
CC(C)=CCCC1(C)C=Cc2c(c(C)cc3c2[nH]c2ccccc23)O1 (stereo not drawn)	0%
Cc1ccc(S(=O)(=O)c2nnn3c2nc(NC2CCCCC2)c2sccc23)cc1	-9%
O=C(Nc1ncc(Cc2ccc(C(F)(F)F)cc2)s1)c1cccc(-c2ccccc2)c1	-5%
C=C1[C@H]2CCC3[C@]4(C)CCC[C@@](C)(C(=O)O)C4CC[C@]3(C2)[C@H]1OC(C)=O (stereo partly drawn)	-4%
CCN(CC)c1ccc(NC(=O)CCc2nc3cccnc3n2Cc2cccs2)c(C)c1	-21%
Cc1ccccc1CN1CCn2c1nc1c(c2=O)CN(Cc2ccccc2)CC1	-4%
CCC1(N2CCN(S(=O)(=O)c3cccs3)CC2)CCN(S(C)(=O)=O)C1 (stereo not drawn)	-4%
O=C(Nc1ccc(C(F)(F)F)cc1)C1CCC(CNS(=O)(=O)c2cccc3nsnc23)CC1 (stereo not drawn)	0%
CCC(=O)O[C@@H](OP(=O)(CCCCc1ccccc1)CC(=O)N1C[C@H](C2CCCCC2)C[C@H]1C(=O)O)C(C)C (stereo partly drawn)	-23%[10 µM]
CC(C)CC(N)c1nnc2n1CCNCC2 (stereo not drawn)	4%
CC(C)Sc1ncc(Cl)c(C(=O)Nc2nnc(C(C)C)s2)n1	-13%
COc1ccc(CCN2C(=O)CN(C3CCC(C)CC3)C(=O)C2c2ccc(OC(C)C)c(OC)c2)cc1OC (stereo not drawn)	-14%
CCCc1ccc(NC(=O)c2ccc3c(c2)NC(=O)CS3)cc1	2%
CCCCc1cc2c(=O)c(C(=O)OC)c[nH]c2cc1OCc1ccccc1	-7%
CCCC(=O)O[C@H]1CN2CC[C@H](O)[C@@H]2[C@@H](O)[C@@H]1O	-9%
CN1c2cccnc2CN(Cc2cccc(Cl)c2)CC[C@H]1CO	3%[39.2 µM]
C[C@@H]1O[C@@H](O[C@H]2[C@H](O)[C@@H](O[C@@H]3O[C@H](CO)[C@@H](O)[C@H](O[C@@H]4O[C@H](CO)[C@@H](O)[C@H](O)[C@H]4O)[C@H]3O)[C@H](O[C@H]3CC[C@@]4(C)C(=CC[C@@H]5C4CC[C@@]4(C)C5C[C@@H]5OC6(CC[C@@](C)(CO[C@@H]7O[C@H](CO)[C@@H](O)[C@H](O)[C@H]7O)O6)[C@@H](C)[C@@H]54)C3)O[C@@H]2CO)[C@H](O)[C@H](O)[C@H]1OC1OC(CO)C(O)C(O)C1O (stereo partly drawn)	-11%[5.1 µM]
CN1CN(c2ccccc2)C2(CCN(CCCC(=O)c3ccc(F)cc3)CC2)C1=O	-20%
CC(C)Oc1ccc(CNS(=O)(=O)c2ccc3c(c2)C(C)(C)C(=O)N3C)cc1	-18%
CC(C)(C#N)c1ccc(N2C(=O)OCc3cnc4ccc(-c5cnc6ccccc6c5)cc4c32)cc1	-9%
Cc1cc2nc(-c3ccc(OCc4ccccc4Cl)cc3)cc(C(F)(F)F)n2n1	-16%
Fc1ccc(-n2ncc3c(N4CCC(Cc5ccccc5)CC4)ncnc32)cc1	-22%
O=C(NCc1cccnc1)C1CCN(S(=O)(=O)c2cccs2)CC1	-8%
CC(C)CC(=O)NCC1(N(C)C)CCCCC1	-19%
COC(=O)Cn1c(SCCOc2ccccc2OC)nc2ccccc21	-20%
O=C1CCCC2=C1C(c1[nH]ncc1Cl)N=C(Nc1nc3c(Cl)cccc3o1)N2 (stereo not drawn)	-16%
Cc1cccc(C(=O)N2CCN(c3cc(C(F)(F)F)nc(C)n3)CC2)c1	?

Some of these compounds in order of molecular weight, ascending.
compound	nsP2pro inh
CCCC(=O)O[C@H]1CN2CC[C@H](O)[C@@H]2[C@@H](O)[C@@H]1O	-9%
CC(C)=CCCC1(C)C=Cc2c(c(C)cc3c2[nH]c2ccccc23)O1 (stereo not drawn)	0%
O=C(Nc1ccc(C(F)(F)F)cc1)C1CCC(CNS(=O)(=O)c2cccc3nsnc23)CC1 (stereo not drawn)	0%
